# Mtb H37Rv: M. tuberculosis H37Rv growth inhibitors, H37Rv strain (AID 1626); M. tuberculosis H37Rv growth inhibition; higher % means a stronger effect; actives 0.95% (n = 220,000); inhibition, % at 10 µM, or IC50 in µM where a hit was titrated;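 active means confirmed in a dose series; inconclusive means inhibition above 80% but not taken into the dose series; inactive means below 80% or under 30% at every dose of the series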;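 further: bacteria incubated seven days before Alamar blue readout; 0% = bacteria only wells and 100% = bacteria with antibiotic wells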
# YopH inh: blocks Yersinia enterocolitica YopH tyrosine phosphatase. actives 0.16% (n = 140,000). inhibition, %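 (about 10 µM by stock and volumes)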. fluorescence Ex485/Em525;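 active means inhibition of 50% or more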;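 further: controls were vehicle for no effect and minimum signal wells for full effect; inactives centre near -20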
# RecA intein inh: Mtb RecA intein splicing inhibition; P9WHJ3; cell-free RecA intein splicing, fluorescence; inhibition, %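 (about 9 µM by stock and volumes)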; actives 0.75% (n = 290,000); AID 2221; in the data active means inhibition above about 30%; inconclusive means no clear call, values can overlap the other calls;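 further: 0% = vehicle wells and 100% = reference inhibitor control wells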
# Target sequence (P9WHJ3 whole entry, looked up): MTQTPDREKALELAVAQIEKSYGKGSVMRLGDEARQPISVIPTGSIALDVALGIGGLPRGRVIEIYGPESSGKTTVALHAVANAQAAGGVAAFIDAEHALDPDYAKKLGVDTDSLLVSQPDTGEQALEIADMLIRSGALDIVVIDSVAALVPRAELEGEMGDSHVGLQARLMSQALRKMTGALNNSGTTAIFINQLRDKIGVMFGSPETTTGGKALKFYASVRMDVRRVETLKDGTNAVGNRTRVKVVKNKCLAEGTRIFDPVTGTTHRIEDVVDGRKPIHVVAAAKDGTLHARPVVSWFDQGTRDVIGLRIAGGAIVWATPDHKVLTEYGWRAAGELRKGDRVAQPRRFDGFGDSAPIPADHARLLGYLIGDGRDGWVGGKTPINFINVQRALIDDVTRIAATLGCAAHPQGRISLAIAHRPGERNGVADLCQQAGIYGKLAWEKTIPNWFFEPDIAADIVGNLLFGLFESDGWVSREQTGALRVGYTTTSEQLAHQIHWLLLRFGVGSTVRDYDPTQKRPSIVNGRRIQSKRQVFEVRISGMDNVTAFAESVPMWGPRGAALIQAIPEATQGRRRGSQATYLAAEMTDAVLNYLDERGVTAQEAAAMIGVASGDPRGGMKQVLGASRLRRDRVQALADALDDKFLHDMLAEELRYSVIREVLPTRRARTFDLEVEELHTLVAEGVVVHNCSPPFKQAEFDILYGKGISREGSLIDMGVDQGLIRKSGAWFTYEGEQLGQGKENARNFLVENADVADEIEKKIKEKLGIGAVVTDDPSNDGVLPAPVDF
# Mtb betalactam: beta-lactam sensitization of Mtb H37Rv; inhibition, % at 25 µM; AID 434955; actives 0.27% (n = 330,000); M. tuberculosis H37Rv growth with meropenem, percent inhibition; hits of this screen are not shown here;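 active means about 74% or more and at least 40 points above the plate without the antibiotic, then above 30% in a dose series; inconclusive means first-round hits that could not be retested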;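 further: growth measured after seven days incubation then overnight dye step; 0% = bacteria only wells and 100% = bacteria with antibiotic; twin plates without the antibiotic show which effects depend on it; some results filed as inactive read as strong as hits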
# Arbovirus anti: blocks arbovirus infection; arbovirus infection cell-based antiviral screen; inhibition, % at 10 µM; actives 0.37% (n = 200,000);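 active means inhibition from about 30%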;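 further: bluetongue infection of BSR cells; cell survival read as ATP light after 72 h; 0% = infected wells without compound and 100% = uninfected wells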
# Arbovirus anti repeat: further read-out of Arbovirus anti, marked with its call; inhibition, %; measured here: 10K subset replicate screen; many hits read low in the repeat;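 first of two repeat runs on a subset; 0% = infected and 100% = uninfected wells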
# * hit, by the source's call; ? = inconclusive; · = no result given; & = joins results of further samples. Only part of the results is shown, so the mix of outcomes need not match the whole.
SMILES,Mtb H37Rv,YopH inh,RecA intein inh,Mtb betalactam,Arbovirus anti,others
c1ccc(CNc2nnnn2-c2ccccc2)cc1,-15%,-11,-2.8,5,3,
COC(=O)c1ccccc1NC(=O)CC#N,-2%,-19,0.6,12,7,
COC/C=C/C1=CC2=CC(=O)C(C)(O)C(=O)C2=CO1 (stereo not drawn),-4%,·,4.9,11,·,
CCOC(=O)N1CCN(C(=O)C2CCN(S(=O)(=O)N3CCC4(CC3)OCCO4)CC2)CC1,·,·,1.1,-3,·,
CCNC(=O)/C(=C/c1cccc([N+](=O)[O-])c1)NC(=O)c1ccc(C)cc1,-4%,·,0.4,-4,-1,
O=C1CC(=C2c3ccccc3-c3ccccc32)C(=O)N1CCN1CCN(c2ccccc2)CC1,-12%,10,6.4,7,·,
COc1cccc(C(=O)Nc2cc(NC(=O)c3ccco3)ccc2OC)c1,-6%,-6,·,-8,2,
CCCCC(CC(C)O)c1n[nH]c(=S)n1-c1ccccc1 (stereo not drawn),12%,-33,-2.6,0,3,
COc1ccc(CCNC(=O)C2CC(c3ccc([N+](=O)[O-])cc3)=NO2)cc1 (stereo not drawn),5%,-19,-2.5,-1,6,
CCOC(=O)CSc1nnc(CNc2nc(-c3ccccc3)cs2)n1C,-6%,-22,-2.7,6,9,
Cc1ccc2nc(-c3ccc(NC(=O)CSc4nccc(=O)[nH]4)cc3)sc2c1,10%,·,·,36,-12,
C=CCc1c(C)nc(SC)nc1Nc1ccc(C(C)=O)cc1,11%,-29,29,99,3,Arbovirus anti repeat=-1
NC(=O)COC(=O)[C@@H]1CC(O)CN1S(=O)(=O)c1ccc2c(c1)OCCO2 (stereo partly drawn),-8%,·,1.1,3,·,
CC1(C)CC(=O)C(N=Nc2ccc(Br)cc2)=C(O)C1,3%,·,1.8,-6,·,
COc1ccc(COC(=O)c2ccc(Br)c(S(=O)(=O)N3CCOCC3)c2)cc1F,·,·,0.4,-11,·,
NC(=O)c1oc2ccccc2c1NC(=O)C1COc2ccccc2O1 (stereo not drawn),-10%,·,-1.4,-1,0,
CC1CCCC(NC(=O)CCC(=O)c2ccc(F)cc2)C1C (stereo not drawn),·,·,3.0,-4,·,
CCCCCCC(=O)c1c(C)[nH]c(C(=O)OCC)c1C,-2%,-5,1.7,18,-15,
O=[N+]([O-])c1nn(-c2ccc3c(c2)OCCO3)n(O)c1=NCc1ccc(F)cc1Cl,0%,·,-2.5,6,-6,
CC(=O)NC(CC(=O)NC12CC3CC(CC(C3)C1)C2)c1ccccc1 (stereo not drawn),0%,-22,9.3,3,-2,
CN(C)/C=N/c1sc2c(c1C#N)CCCC2,4%,·,-7.4,-7,-1,
CCOc1ccc(C2C(C(=O)c3ccco3)=C(O)C(=O)N2Cc2cccnc2)cc1 (stereo not drawn),-5%,-7,3.2,-4,-1,
O=C(CCSc1ccc(Cl)cc1)c1cccs1,>100µM*,5,-1.2,100,-4,
O=S(=O)(CCc1nc2ccccc2[nH]1)c1ccc(Cl)cc1,-8%,-32,-0.3,-2,13,
O=C(Cc1ccc(Cl)cc1)Nc1ccc(Br)cc1,3%,·,-0.2,-2,6,
Cc1csc(=O)n1CC(=O)OCC(=O)Nc1cc(S(=O)(=O)N2CCOCC2)ccc1Cl,·,·,-0.5,-8,·,
Cn1c(=O)c2c(nc(SCC(=O)Nc3ccccc3)n2C)n(C)c1=O,-4%,-20,-0.6,-2,10,
CCN(CC)S(=O)(=O)c1cccc(N=Nc2c(O)n(CC)c(=S)n(CC)c2=O)c1,1%,·,-1.4,-7,·,
CSc1ccc(C2NN=C(c3ccccc3)S2)cc1 (stereo not drawn),·,·,0.8,-5,·,
CCc1ccc(-c2nc(CS(=O)CC(=O)NCc3cccnc3)c(C)o2)cc1 (stereo not drawn),-3%,-23,1.8,3,1,
O=C1c2ccc(Br)cc2C(=O)N1c1ccc(Cc2ccncc2)cc1,0%,·,-0.8,·,1,
O=C(Nc1ccc(S(=O)(=O)N2CCCCC2)cc1)C1CC(=O)N(Cc2ccccc2)C1 (stereo not drawn),·,·,1.2,-8,·,
CN1CCN(C(=O)CNc2ccc(C(F)(F)F)cc2[N+](=O)[O-])CC1,-3%,·,-0.6,-7,1,
CCOc1cc(C2c3c(n[nH]c3C)C(=O)N2c2ccc(C)cc2)ccc1O (stereo not drawn),6%,-25,2.1,-25,1,
COC(=O)CN(c1cc(OC)ccc1OC)S(=O)(=O)c1ccc(OC)c(OC)c1,·,-19,1.3,-7,3,
Cn1c(N=Nc2ccccc2)nc2ccccc21,1µM*,-16,9.7,99,-24,
O=C(CCNC(=O)c1ccccc1Cl)NNC(=O)c1ccccc1O,·,·,-5.1,-8,·,
FC(F)(F)c1n[nH]c(=S)n1/N=C/c1ccco1,-3%,-35,-6.8,6,10,
COC(=O)c1ccc(Oc2c(F)c(F)nc(N3CCOCC3)c2F)cc1,4%,·,7.8,2,-1,
Cc1cccc(N=C2NC(=O)/C(=C/C=C/c3ccco3)S2)c1C,·,-5,20,28,-6,
O=C(COC(=O)c1cccc(-n2cnnn2)c1)c1ccc(F)cc1,·,·,-1.8,2,·,
COCCCNC(=O)C1CCN(C(=O)c2cc3sccc3n2Cc2ccc(F)cc2)CC1,-7%,-34,0.0,2,15,
CCc1cccc(NC(=O)c2sc3nc4n(c(=O)c3c2C)CCC4)c1,·,·,-11,3,·,
CCCCN1C(=O)C(=O)N(CC(=O)c2ccc[nH]2)C1=O,·,·,-1.2,-4,·,
Cc1ccc2[nH]c(=O)c(C(c3nnnn3CC3CCCO3)N3CCOCC3)cc2c1 (stereo not drawn),-2%,-38,-1.8,1,3,
c1cnc(N2CC[N+]3(CCCC3)CC2)nc1,2%,-47,-4.9,2,3,
Cc1c(C(=O)N2CCN(c3ccccn3)CC2)oc2c(F)cccc12,·,·,2.6,7,·,
COc1ccc(-c2nnc3ccc(SC(C(C)=O)C(C)=O)nn23)cc1OC,2%,4,-1.2,7,-10,
C/C(=N\NC(=O)c1ccc([N+](=O)[O-])c(C)c1)c1ccccc1Cl,?,-32,1.0,18,-2,
CC(C)NC(=O)c1ccc(COCC(F)(F)C(F)F)cc1,0%,-6,-0.8,-2,3,
CCN(CC)CCNC(=O)C1CCCCN1S(=O)(=O)c1cccc([N+](=O)[O-])c1 (stereo not drawn),-2%,·,-0.7,3,4,
CN(C)/C=N/S(=O)(=O)c1ccc(Cl)c(Cl)c1,5%,·,-0.4,-2,·,
Cc1ccc(C(=O)O)cc1NCc1ccncc1,·,·,-2.9,0,·,
O=C(O)c1ccc(S(=O)(=O)NC2CCCc3ccccc32)cc1 (stereo not drawn),-6%,-41,2.2,-3,4,
N#Cc1ccc(N=c2ssnc2Cl)cc1,-5%,1,-6.3,11&6,2,
COc1ccccc1CNC(=O)Cn1nnnc1CN(C)C(C)C,·,·,-0.8,-12,·,
O=C(NCCOc1ccccc1Cl)c1ncn[nH]1,1%,·,1.7,-7,-3,
CCNC(=S)Nc1ccc(NC(=O)c2ccccc2O)cc1,2%,·,0.6,-7,·,
COC(=O)Cc1c(C)c2ccc(OCc3nn[nH]n3)c(C)c2oc1=O,-11%,4,-0.1,-4,-4,
COc1ccccc1/C=C/CN1CCC(Oc2cc(C(=O)NC3CC3)ccc2OC)CC1,·,·,13,21,·,
# (next part)
SMILES,Mtb H37Rv,YopH inh,RecA intein inh,Mtb betalactam,Arbovirus anti,others
O=C(Nc1ncccn1)c1ccc([N+](=O)[O-])cc1,-1%,·,-1.6,10,-3,
COc1ccc(NC(=O)CCOc2ccccc2)c(OC)c1,-1%,4,1.9,-2,5,
Cc1cccc2c1NC(=O)C2=Nc1ccc(Cl)cc1,·,·,0.5,0,·,
FC(F)(F)c1cc(-c2ccccc2)nc(N2CCOCC2)n1,-1%,-53,2.9,-3,10,
CCc1ccc(-c2cc(C(=O)NN3CCN(C)CC3)c3ccccc3n2)cc1,7%,-41,2.3,1,-1,
O=C(O)CCC(=O)N1N=C(c2c(-c3ccccc3)c3cc(Cl)ccc3[nH]c2=O)CC1c1ccco1 (stereo not drawn),7%,-44,6.6,2,-2,
CCc1ccc(S(=O)(=O)c2nnn3c2nc(NCCNC(C)=O)c2ccccc23)cc1,-3%,·,-1.4,-1,15,
O=C(NCc1n[nH]c(=S)n1-c1ccc(Br)cc1)c1ccc(S(=O)(=O)N2CCOCC2)cc1,-1%,·,-0.3,-5,1,
CCn1c(C)c(C(C)=O)c(NCc2ccccc2)nc1=S,-6%,-8,0.5,0,-5,
CCOC(=O)NC(Nc1cc(C)on1)(C(F)(F)F)C(F)(F)F,1%,-17,0.1,16,12,
COc1ccc(CCN(Cc2cc3cc(C)c(C)cc3nc2Cl)C(=O)C2CC2)cc1,2%,-27,-0.5,4,2,
COC(=O)Nc1cc([N+](=O)[O-])ccc1OC,4%,-2,-4.2,-2,-5,

# Quoted at random: 4 entries already listed.
SMILES,Mtb H37Rv,YopH inh,RecA intein inh,Mtb betalactam,Arbovirus anti,others
O=C(Nc1ncccn1)c1ccc([N+](=O)[O-])cc1,-1%,·,-1.6,10,-3,
CCc1ccc(S(=O)(=O)c2nnn3c2nc(NCCNC(C)=O)c2ccccc23)cc1,-3%,·,-1.4,-1,15,
COc1ccc(CCN(Cc2cc3cc(C)c(C)cc3nc2Cl)C(=O)C2CC2)cc1,2%,-27,-0.5,4,2,
O=C(NCc1n[nH]c(=S)n1-c1ccc(Br)cc1)c1ccc(S(=O)(=O)N2CCOCC2)cc1,-1%,·,-0.3,-5,1,

# Returning to the listing, starting 6 compounds before the break.
SMILES,Mtb H37Rv,YopH inh,RecA intein inh,Mtb betalactam,Arbovirus anti,others
CCc1ccc(S(=O)(=O)c2nnn3c2nc(NCCNC(C)=O)c2ccccc23)cc1,-3%,·,-1.4,-1,15,
O=C(NCc1n[nH]c(=S)n1-c1ccc(Br)cc1)c1ccc(S(=O)(=O)N2CCOCC2)cc1,-1%,·,-0.3,-5,1,
CCn1c(C)c(C(C)=O)c(NCc2ccccc2)nc1=S,-6%,-8,0.5,0,-5,
CCOC(=O)NC(Nc1cc(C)on1)(C(F)(F)F)C(F)(F)F,1%,-17,0.1,16,12,
COc1ccc(CCN(Cc2cc3cc(C)c(C)cc3nc2Cl)C(=O)C2CC2)cc1,2%,-27,-0.5,4,2,
COC(=O)Nc1cc([N+](=O)[O-])ccc1OC,4%,-2,-4.2,-2,-5,
O=C(CSc1ncn[nH]1)N/N=C/c1ccc(Br)cc1,·,·,1.3,-4,·,
CN1CCc2cc(O)cc3c2[C@H]1Cc1ccc(O)c(O)c1-3,-7%,·,2.0,12,·,
O=C(NCCOc1ccc(F)cc1)C1CCC(=O)N(CCc2ccccn2)C1 (stereo not drawn),·,·,1.4,-1,·,
O=C(O)CC(c1cccc2ccccc12)n1cccc1 (stereo not drawn),11%,-9,1.8,1,15,
O=C(c1ccoc1)N1CCC2(CC1)Oc1ccc(F)cc1C(=O)C21CC(c2ccccc2)=NO1 (stereo not drawn),2%,·,2.3,86,·,
COc1ccccc1NC(=S)NC(=O)C1CC1,15%,-35,0.1,17,2,
COc1ccccc1NC(=S)N1CCN(C/C=C/c2ccccc2)CC1,1%,-19,0.8,-4,5,
CCCN1Cc2cccc(C(=O)Nc3ccc(-c4nc5ccccc5[nH]4)cc3)c2C1=O,3%,-40,-0.5,28,-6,
CCOc1ccc(-n2c(SCC(=O)N3CCc4ccccc43)nnc2-c2c[nH]c3ccccc23)cc1,·,-31,0.9,5,-8,
COc1ccc(S(=O)(=O)N2C3CCC2CC(NC(=O)NC2CCCCC2)C3)cc1 (stereo not drawn),5%,-7,-0.1,-1,-3,
CCc1ccc(NC(=O)CSCc2nc(N)nc(Nc3ccccc3CC)n2)cc1,11%,-23,1.9,20,-4,
COC(Cn1cc(C)c(=O)[nH]c1=O)OC,-11%,·,-5.5,6,10,
Cc1ccc2c(c1)[nH]c1c(=O)n(CCN3CCNCC3)cnc12,-1%,-31,-0.5,·,2,
CCn1c(CSCc2ccc(Cl)cc2)nnc1SCC(=O)Nc1cccc(C(=O)O)c1,4%,·,0.8,3,0,
CC1=C(C)CC(C(=O)N2CCN(C/C=C/c3ccccc3)CC2)C(C(=O)O)C1 (stereo not drawn),-4%,·,-1.3,-4,8,
O=C(Nc1ccc(Br)cc1Cl)N1CCOCC1,5%,·,-0.9,4,-3,
O=C(C1CCCN(Cc2ccccc2Br)C1)N1CCCCC1 (stereo not drawn),-9%,7,·,-2,2,
O=C(Nc1cccc(NC(=O)c2cncc(Br)c2)c1)c1cncc(Br)c1,·,·,0.4,1,·,
O=C1c2ccccc2NC(c2ccco2)N1O (stereo not drawn),-4%,25,-3.2,45,-1,
O=S(=O)(Cc1ccccc1)N1CCCC(c2nc(-c3ccc(F)cc3)no2)C1 (stereo not drawn),1%,-15,-1.4,1,2,
CCOC(=O)C1CCCCN1Cc1ccc(OC)c(OC)c1 (stereo not drawn),1%,·,3.2,-2,·,

# Assay outcomes (PubChem)
